Screening results deposited in PubChem by PCMD.
Biofilm kill mix: mixtures killing C. albicans biofilm. C. albicans biofilm persisters + clotrimazole, fluorescence viability; primary screen in compound mixtures of four per well. actives 0.02% (n = 120,000). inhibition, % at 7.6 µM. AID 1242;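 active = inhibition above 30.3% in the primary screen of four-compound pools, then above 30% when the compound was retested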;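 note: compounds exposed to preformed 24 h biofilms for 48 h; the number belongs to the whole pool; some results filed as inactive read as strong as hits; inactives centre near 12; 0% = biofilm with clotrimazole alone and 100% = kill control; retested singly at about 60 µM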
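Probe or stimulus – Clotrimazole 50 µg/mL co-treatment · System – C. albicans biofilms · Schedule – 24 h biofilm formation, then 48 h compound exposure, 37 °C · Evaluation – percent inhibition of biofilm viability · Technique – 2-h Alamar Blue fluorescence, 535/590 nm excitation/emission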
Numbers without * were called inactive; & = joins results of further samples. This is a subset; rates above refer to the full screens.

SMILES	Biofilm kill mix
O=C(CSc1nc(-c2ccco2)cc(C(F)(F)F)n1)Nc1ccccc1C(F)(F)F	13
O=C(CSc1cccc[n+]1[O-])Nc1ccc2c(c1)OCO2	2
O=C(CSc1ccc2nnc(-c3cccnc3)n2n1)c1ccccc1	3
CC1(NC(=S)Nc2ccc3ccccc3c2)CCS(=O)(=O)C1 (configuration not stated)	35
C=CCOc1ccc(/C=N\NC(N)=S)cc1	16
CCOC(=O)N1CCN(C(=S)NC(C)(C)C)CC1	16
COC(=O)c1nn(-c2ccc(OC)cc2)c(=O)c2c(N)sc(C)c12	1
CC(C)(C)C1CCc2c(C(=O)NNC(=O)CCCC(=O)O)csc2C1 (configuration not stated)	12
NC(=O)CC[C@@H]1NC(=O)[C@H](CO)NC(=O)c2cc([N+](=O)[O-])cc(I)c2NCCCC[C@@H](C(N)=O)NC(=O)[C@H](Cc2ccc(O)cc2)NC1=O	16
O=C1c2ccccc2C(=O)N1CC(O)CNc1ccc(Br)cc1 (configuration not stated)	13
CC(/C=C/c1ccccc1F)=N\NC(=O)c1ccccc1	11
COc1ccc([N+](=O)[O-])cc1/C=N/Nc1nn[nH]n1	3
O=C1/C(=C/c2ccccn2)SC(=S)N1CCc1ccccc1	28
CCOC(=O)CSc1nnc(CNc2cccc(Cl)c2)n1C	5
COC(=O)Cc1csc(Nc2ccc(F)c(Cl)c2)n1	17
Cc1ccsc1CNC12CC3CC(CC(C3)C1)C2	17
O=S(=O)(Nc1ncccn1)c1ccc(NC(=S)Nc2ccc(Cl)cc2)cc1	-5
Cc1nc2cc(NCc3ccccc3O)ccc2n1Cc1ccccc1	22
CC(=O)c1ccc(NC(=O)CNCC(c2ccccc2)N(C)C)cc1 (configuration not stated)	12
Cc1nn(-c2ccccc2)c(C)c1C1C(C#N)=C(N)Oc2n[nH]c(C)c21 (configuration not stated)	16
CCc1ccccc1NC(=O)CCN1C(=O)C2C3CCC(C3)C2C1=O (configuration not stated)	7
CCOC(=O)CSc1c(-c2cccs2)[nH]c2ccccc12	9
CC12CCC(C(=O)Nc3ccccc3Cl)(C(Br)C1=O)C2(C)C (configuration not stated)	4
Cc1ccccc1NC(=O)C(C)n1c2ccccc2c2nc(=O)cc(C)n21 (configuration not stated)	14
CCCCc1ccc(NC(=O)CC(C)C)cc1	7
O=C1Nc2ccccc2N(O)N1c1ccc(Cl)c(Cl)c1	9
O=C(O)COCC(=O)NCc1csc2ccc(Cl)cc12	0
COc1ccc(NC(=O)c2cc(S(=O)(=O)N(C)C)ccc2N2CCCC2)cc1Cl	5
Cc1cc(C(=O)Nn2c(C3CCCCC3)nc3ccccc3c2=O)ccc1[N+](=O)[O-]	1
O=C(COc1ccccc1[N+](=O)[O-])Nc1ccc(NC(=O)c2cc3ccccc3o2)cc1	12
Cc1cc(C(=O)COC(=O)c2ccc(O)cc2)c(C)n1CC1CCCO1 (configuration not stated)	18
Cc1ccc(/C=N/NC(=O)CN2C(=O)CSc3ccccc32)o1	21
CCC(=O)N1CCCc2ccccc21	-5
CCC(CO)NC1=C([N+](=O)[O-])C(=O)CC(C)(C)C1 (configuration not stated)	4
COc1ccc(/C(C)=N/NC(=O)c2ccccc2N)cc1	3
COc1cc(NC(=O)CSc2nc3c(c(=O)[nH]2)CCCC3)cc(OC)c1OC	16
COc1cc(SC)ccc1C(=O)NCCOc1ccc(Cl)cc1	18
Cn1c(-c2ccccc2O)cc2ccccc21	13
COC(=O)Nc1nnc(-c2ccco2)s1	15
O=C(O)c1ccc(COc2ccccc2/C=C2\NC(=O)N(Cc3ccccc3)C2=O)cc1	7
O=C(CCc1ccccc1)NNC(=O)Cc1ccccc1	3
COc1ccc(C(=O)NCc2ccc(C(=O)NCC(OC)OC)cc2)cc1OC	7
CN1CCN(C(=O)NCC23CC4CC(CC(C4)C2)C3)CC1	22
O=C(O)CNC(=O)CCCn1nnc2ccccc2c1=O	8
Cc1ccc(Nc2ccc(N)cc2S(=O)(=O)O)cc1	21
COc1ccc(NC2CC(=O)N(CCc3ccccc3)C2=O)cc1 (configuration not stated)	-5
O=C1CC(O)(c2ccccc2)C(c2ccccc2)=C1c1ccccc1 (configuration not stated)	16
CN(Cc1ccccc1)c1ncnc(N)c1[N+](=O)[O-]	20
CC(C)CNC(=O)COC(=O)Cc1ccc(Cl)cc1	24
CCN(CCn1cccn1)Cc1c(C(=O)N2C[C@@H](C)O[C@@H](C)C2)nc2ccc(Cl)cn12	21
O=C(Nc1ccc(O)c2c(=O)cc(-c3ccccc3Cl)oc12)c1cccs1	15
COC(=O)c1sccc1NC(=S)N(C)C1CCCCC1	13
CC(C)(C)C1CCC(=NNC(=O)CN(c2ccccc2)S(=O)(=O)c2ccccc2[N+](=O)[O-])CC1 (configuration not stated)	5
COc1ccc(OCc2nnc(SCc3ccc(C(=O)O)cc3)o2)cc1	10
Cc1nc(-c2ccc(S(=O)(=O)Oc3ccccc3Cl)s2)cs1	27
Cc1cc(N/N=C/c2ccccc2F)nc(NCc2ccccc2)n1	31
CCCCC(CC)C(=O)NCC(C)NC(=O)C(CC)CCCC (configuration not stated)	16
COc1ccccc1CNC(=O)C/C(C)=N/NC(=O)COc1ccc(C)cc1Br	10
CC1CN(C)C(C)c2c1oc1ccc(N)cc21 (configuration not stated)	11
COC(=O)c1ccc(COc2ccc(/C=N/NC(N)=S)cc2)o1	13
Further structures:
SMILES	Biofilm kill mix
CCC(=O)c1ccc(N2CCCCC2)c(F)c1	1
CN1/C(=C\C=N\NC(=O)c2ccccc2Br)C(C)(C)c2ccccc21	14
Cc1cccc(-n2c(SCC(=O)NCc3ccc4c(c3)OCO4)nc3ccccc3c2=O)c1	17
C[C@H](NS(=O)(=O)c1ccc(Cl)cc1)C(=O)OCC(=O)NC(=O)Nc1ccc2c(c1)OCCO2	14
Fc1ccc(-c2cc(-c3ccccc3)nc(-n3cccn3)n2)cc1	-10
COc1ccc(Cl)cc1NC(=O)Cc1c(F)cccc1Cl	10
c1ccc2nc3c(cc2c1)CCCCC3	17
O=C(O)c1ccccc1NC(=S)NC(=O)c1cccc2ccccc12	3
C[N+](C)(C)c1ccc(/C=N/Nc2nc(Cl)c(C#N)c(Cl)c2Cl)cc1	0
Cc1ccc(C(=O)CN2C(=O)c3ccccc3S2(=O)=O)cc1	11
COc1ccccc1NC(=O)Nc1cccc(NC(C)=O)c1	26
O=C(O)C(c1ccccc1)N1C(=O)/C(=C/c2cccs2)SC1=S (configuration not stated)	9
Cn1c(=O)n(C)c2cc(NC(=O)c3ccccc3[N+](=O)[O-])c(Br)cc21	10
N#Cc1ccccc1NC(=O)COc1c(Br)cc(Br)c2cccnc12	20
COCC(C)NCc1cccc2ccccc12 (configuration not stated)	4
CCN(Cc1ccncc1)C(=O)CC1C(=O)NCCN1Cc1ccc(F)c(F)c1 (configuration not stated)	8
COc1cc(S(=O)(=O)Nc2ccc(C)cc2)ccc1N=Cc1c(C)[nH]n(-c2ccccc2)c1=O	-2
CCCCOc1ccc(C2=NNC(=O)CC2)cc1	16
CCOc1ccc(NC(=O)c2ccc(CC)s2)c([N+](=O)[O-])c1	17
Cn1c(=O)c2c(nc(Cc3ccc(N)cc3)n2C)n(C)c1=O	17
CCC(C(=O)c1ccccc1)P(=O)(NN)c1ccccc1 (configuration not stated)	13
Cc1ccc(NC(=S)N2CCN(c3ncccn3)CC2)cc1C	8
CCc1ccc[n+](-c2[nH]c(=O)sc2/C=N/N=C(\N)[O-])c1	12
Cc1cccc(NC(=O)Nc2ccc(S(N)(=O)=O)cc2)c1	5
CN1CCN(Cc2cc(Cl)c3cccnc3c2OC(=O)c2cccs2)CC1	7
CCOCCCNCc1ccc(OCC(=O)N2CCOCC2)c(OC)c1	-27
O=C1CCC(=O)N1OCCOc1ccccc1	11
CC(C)(C)c1ccc(/C=N/Nc2ccc(C(=O)O)cc2)cc1	13
COc1cc([N+](=O)[O-])ccc1NC(=O)CC1SC(=Nc2ccc(F)cc2)N(CCC2=CCCCC2)C1=O (configuration not stated)	13
COc1cccc(CN2CCN(C3CCN(c4ccccc4C)CC3)CC2CCO)c1 (configuration not stated)	25
CC1(C)CC(=O)C(C(=S)Nc2ccccc2)=C(NC2CC(C)(C)NC(C)(C)C2)C1	0
Cc1[nH]nc(Nc2ccc(C(C)C)cc2)c1[N+](=O)[O-]	30
Cc1cnc([N+](=O)[O-])n1CCOC(=O)NC(=O)c1ccccc1	12
O=C(NCc1ccco1)c1nc2c(nnn2Cc2ccccc2Cl)c(=O)[nH]1	10
COC(=O)[C@H](Cc1ccccc1)NC(=O)N1CCN(c2ccccc2)CC1	27
Cc1ccsc1/C=C(\C#N)C(=O)NCc1cccnc1	23
COc1ccc(N(C(=O)C2CCCCC2)S(=O)(=O)c2cccc3cccnc23)cc1	8
N#Cc1ccc(-c2ccc(OCC(O)CN3CCOCC3)cc2)cc1 (configuration not stated)	20
O=C(C1=C[C@H](C2CCCCC2)C[C@H](OCCCCO)O1)N1CCN(Cc2ccccc2)CC1	20
CCS(=O)(=O)N1CCN(c2cnn(-c3ccccc3)c(=O)c2Cl)CC1	11

In a second layout: results already given
| Molecule | Biofilm kill mix |
| --- | --- |
| COc1ccc(/C(C)=N/NC(=O)c2ccccc2N)cc1 | 3 |
| COc1cc(NC(=O)CSc2nc3c(c(=O)[nH]2)CCCC3)cc(OC)c1OC | 16 |
| COc1cc(SC)ccc1C(=O)NCCOc1ccc(Cl)cc1 | 18 |

Compounds shown so far containing a nitro group on carbon:
SMILES	Biofilm kill mix
NC(=O)CC[C@@H]1NC(=O)[C@H](CO)NC(=O)c2cc([N+](=O)[O-])cc(I)c2NCCCC[C@@H](C(N)=O)NC(=O)[C@H](Cc2ccc(O)cc2)NC1=O	16
COc1ccc([N+](=O)[O-])cc1/C=N/Nc1nn[nH]n1	3
Cc1cc(C(=O)Nn2c(C3CCCCC3)nc3ccccc3c2=O)ccc1[N+](=O)[O-]	1
O=C(COc1ccccc1[N+](=O)[O-])Nc1ccc(NC(=O)c2cc3ccccc3o2)cc1	12
CCC(CO)NC1=C([N+](=O)[O-])C(=O)CC(C)(C)C1 (configuration not stated)	4
CN(Cc1ccccc1)c1ncnc(N)c1[N+](=O)[O-]	20
CC(C)(C)C1CCC(=NNC(=O)CN(c2ccccc2)S(=O)(=O)c2ccccc2[N+](=O)[O-])CC1 (configuration not stated)	5
Cn1c(=O)n(C)c2cc(NC(=O)c3ccccc3[N+](=O)[O-])c(Br)cc21	10
CCOc1ccc(NC(=O)c2ccc(CC)s2)c([N+](=O)[O-])c1	17
COc1cc([N+](=O)[O-])ccc1NC(=O)CC1SC(=Nc2ccc(F)cc2)N(CCC2=CCCCC2)C1=O (configuration not stated)	13
Cc1[nH]nc(Nc2ccc(C(C)C)cc2)c1[N+](=O)[O-]	30
Cc1cnc([N+](=O)[O-])n1CCOC(=O)NC(=O)c1ccccc1	12

Next part.
SMILES	Biofilm kill mix
CCCCCCCCCCCCCCCCn1cc[n+](C)c1	26&26
O=C(Nc1nc(-c2ccccn2)cs1)c1cc(Cl)ccc1[N+](=O)[O-]	12
O=C(N/N=C/c1ccncc1)NC1CCCCC1	15
COc1ccc2nc(NC(=O)CSc3nnc(C)n3N)sc2c1	9
Cc1ccc(-n2nnnc2SCC(=O)c2cc(C)n(CC3CCCO3)c2C)cc1 (configuration not stated)	8
COC(=O)c1ccccc1NC(=O)C(C)c1ccc([N+](=O)[O-])cc1 (configuration not stated)	10
CCCS(=O)(=O)Nc1cccc(-c2nc3cccnc3s2)c1	20
COc1ccc(/C=C/C(=O)N(C)c2ccccc2C(=O)O)cc1	20
CS(=O)(=O)N(CC(=O)NCc1ccc(Cl)cc1)C1CCCCC1	15
O=C(C1=C[C@H](C2CC2)C[C@H](OCc2ccc(CO)cc2)O1)N1CCN(Cc2ccc3c(c2)OCO3)CC1	16
Cc1ccc(NC(=O)Nc2ccccc2CC[N+](=O)[O-])cc1	16
Cc1nn(-c2ccccc2)c2c1C(c1ccc([N+](=O)[O-])cc1)C(C#N)=C(N)O2 (configuration not stated)	18
CC(C)(C)c1cc(-c2ccccc2)n[nH]1	14
COc1cc(Nc2ccc(C(=O)O)cc2[N+](=O)[O-])cc(OC)c1	19
CCCCN(CCCC)NC(=O)c1ccccc1	20
Cc1ccccc1Nc1scc(-c2ccc(Cl)cc2)[n+]1-c1ccccc1C	15
CC(C)(C)c1ccc(C(=O)C2CCCN(C(=O)C3CCOCC3)C2)cc1 (configuration not stated)	9
Cc1ccc(C)c(OCCSc2nnc(-c3cccnc3)n2N)c1	21
CCCCOc1ccc(C2C(C(=O)c3ccc(C)o3)=C(O)C(=O)N2CC2CCCO2)cc1 (configuration not stated)	12
COCCN1C=C2C(=O)C(C)(OC(=O)C3CCCC3)C(=O)C=C2C=C1c1ccsc1 (configuration not stated)	13
Nn1c(=O)[nH]c2ccccc2c1=O	13
O=C(Nc1cc2c(cc1Br)OCCCO2)c1ccccc1	-6
COC(=O)c1nn(-c2ccc(Oc3ccccc3)cc2)c(=O)cc1O	10
Cc1cc(C)n(C(CC(=O)O)C(=O)O)n1 (configuration not stated)	9
CCc1c(C)sc(NC(=S)Nc2nc(C)cc(C)n2)c1C(=O)OC	12
CCc1nc(C)cn1S(=O)(=O)c1ccc([N+](=O)[O-])cc1	30
CSc1nc(-c2ccc(Cl)cc2)nn1S(=O)(=O)c1ccccc1	12
CCc1ccc(C2C3=C(CC(C)(C)CC3=O)OC3=C2C(=O)CC(C)(C)C3)cc1	13
Cc1ccc(C)c(NC(=O)C(=O)NCCc2c[nH]c3ccccc23)c1	20
N#C/C(=N\Nc1cccc2ccccc12)c1nnc2n1CCCCC2	24
O=Cc1c(N2CCOCC2)nc2ccccn2c1=O	13
CCc1cccc(NC(=S)N(CCOC)C(C)c2ccco2)c1 (configuration not stated)	21
COc1ccc(C(=O)CN2C(=O)COc3ccccc32)cc1	22
CCCn1c(N2CCN(C(=O)NCc3ccccc3)CC2)nc2ccccc21	11
CC1CN(S(=O)(=O)c2ccc(C(=O)Nc3nc(-c4cc5ccccc5o4)cs3)cc2)CC(C)O1 (configuration not stated)	12
